Compound activity: PubChem, Southern Research Specialized Biocontainment Screening Center
Mtb bLac sens: beta-lactam sensitization of Mtb H37Rv, H37Rv; 0.27% of 330,000 active; inhibition, % at 25 µM; AID 434955, 2010; M. tuberculosis H37Rv growth with meropenem, percent inhibition; hits of this screen are not shown here;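 active = about 74% or more and at least 40 points above the plate without the antibiotic, then above 30% in a dose series; inconclusive = first-round hits that could not be retested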;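 note: growth measured after seven days incubation then overnight dye step; 0% = bacteria only wells and 100% = bacteria with antibiotic; twin plates without the antibiotic show which effects depend on it; some results filed as inactive read as strong as hits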
* = called active by the depositor; ? = inconclusive. Some of the compounds tested; rates above refer to the full screens.

cpd	SMILES	Mtb bLac sens
1	O=C(O)CSc1ccc(S(=O)(=O)N2CCCC2)cn1	-8.7
2	O=C(Nc1ccc([N+](=O)[O-])cc1)c1cccc(S(=O)(=O)Nc2cccnc2)c1	-7.8
3	O=C(NC1CCCCC1)c1n[nH]c2c1CC(c1ccccc1)CC2 (stereo not drawn)	17.4
4	COc1ccc(NC(=O)CCCCC(=O)Nc2ccc(OC)cc2)cc1	-4.5
5	Cc1cccc(OCC(=O)N(C)c2c(N)n(Cc3ccccc3)c(=O)[nH]c2=O)c1C	-1.5
6	COC(=O)C1CCN(CC(=O)N(C)c2c(N)n(Cc3ccccc3)c(=O)[nH]c2=O)CC1	-1.9
7	O=C(Nc1cccc(F)c1)NC1(C(=O)N2CCC(O)CC2)CCCCC1	-2.8
8	COc1ccc(S(=O)(=O)N2CCN(C(=O)CCNC(=O)c3ccccc3Cl)CC2)cc1	-5.1
9	N#CC1(NC(=O)COC(=O)C2=COCCO2)CCCCC1	-0.9
10	CCN(CC(=O)Nc1ccc2c(c1)OCCO2)C(=O)c1ccc(CS(C)(=O)=O)cc1	-5.1
11	CC(C)CN(C(=O)COc1ccc([N+](=O)[O-])cc1)c1c(N)n(CC(C)C)c(=O)[nH]c1=O	2.9
12	COc1ccc(CNC(=O)CN(C)S(=O)(=O)c2ccc3c(c2)OCCO3)cc1OC	-7.2
13	O=C(Cn1nnc(-c2ccccc2)n1)NC(=O)NC1CCCC1	1.1
14	N#CCCN(C(=O)COC(=O)/C=C/c1cccs1)c1ccccc1	-1.3
15	C=CCCC(=O)N1CCC(Oc2cccc(C(=O)NCc3ccccn3)c2)CC1	?
16	CC(C)Oc1cc2ccccc2cc1CNC[C@H]1O[C@@H](n2cnc3c(N)ncnc32)[C@H](O)[C@@H]1O	3.9
17	Cc1ccsc1CN(C)C(=O)CN1C(=O)NC2(CCCCC2C)C1=O (stereo not drawn)	3.4
18	Cc1cc(C)c(OCC(=O)NCC2COc3ccccc3O2)c(C)c1 (stereo not drawn)	0.2
19	Cc1cc(C)cc(NC(=O)CSc2nnc(NC(=O)C3CC3)s2)c1	-2.2
20	CC(C)NC(=O)N(C)C[C@H]1Oc2ccc(NS(=O)(=O)c3ccc(Cl)cc3)cc2CC(=O)N([C@@H](C)CO)C[C@@H]1C	1.4
21	CCOC(=O)c1c(C)[nH]c(C)c1C(=O)COC(=O)/C=C/c1ccco1	-1.7
22	COc1ccc(-c2oc(=O)c3cc(OC)c(OC)cc3c2/C=C/c2cccc([N+](=O)[O-])c2)cc1	-6.1
23	COc1ccc(CC(=O)OCC(=O)c2c(N)n(C)c(=O)n(C)c2=O)cc1OC	-6.6
24	Cc1ccc(S(=O)(=O)NCCC(=O)NC2CCCCCC2)cc1C	-0.6
25	O=C(CNC(=O)c1ccc(Cl)cc1Cl)NCC1CCCO1 (stereo not drawn)	-25.9
26	Cc1ccccc1C(=O)NC(CC(C)C)C(=O)NCC(C)(C)N1CCOCC1 (stereo not drawn)	-7.8
27	CCCNC(=O)C(Cc1cccc(C#N)c1)NC(=O)c1cccc([N+](=O)[O-])c1 (stereo not drawn)	-2.0
28	O=C(COC(=O)c1ccc(O)cc1)c1ccc(S(=O)(=O)N2CCCCC2)cc1	-12.9
29	O=C(CCN1C(=O)C2CC=CCC2C1=O)Nc1nc(-c2ccc(F)c(F)c2)cs1 (stereo not drawn)	-2.7
30	COC(=O)c1cn(CC(=O)Nc2ccccc2C)c2ccccc12	-1.0
31	O=C(OCC(=O)c1ccccc1)C1=NN(c2ccccc2)C(=O)CC1	-6.6
32	CCOC(=O)C(C)C(C)=O (stereo not drawn)	-0.7
33	CCN(C(=O)CSc1nnc(-c2ccc(OC)cc2)n1C(C)C)C1CCS(=O)(=O)C1 (stereo not drawn)	-7.8
34	O=C1CCN(S(=O)(=O)c2cc(C(F)(F)F)ccc2Cl)CC1	0.3
35	COc1ccc(CC(=O)Nc2ccc(S(=O)(=O)N3CCCC3)cc2)cc1OC	1.1
36	CN(C(=O)c1ccc(NC(=O)Cc2ccc(NC(=O)C3CCN(C(=O)c4ccccc4)CC3)cc2)cc1)C1CC1	-5.9
37	COc1cc(/C=C/C(=O)OCC(=O)Nc2cc(S(=O)(=O)N3CCOCC3)ccc2Cl)cc(OC)c1OC	-3.0
38	C=CCn1c(SCC(=O)Nc2cc(C)on2)nnc1-c1ccccc1F	-2.2
39	COC(=O)C1=C(c2ccc(C(C)=O)cc2)C[C@@H]2CC[C@H]1N2C(=O)NCC1CC1	-5.2
40	CCOc1ncccc1C(=O)Nc1cc(S(=O)(=O)N2CCCCC2)ccc1OC	-3.5
41	Nc1c(Cl)cc(C2=NCCn3nc4cc([N+](=O)[O-])ccc4c32)cc1Cl	2.4
42	CC(C)(C)OC(=O)CNC(=O)c1[nH]cnc1C(=O)NC1CCNCC1	0.1
43	C[C@@H]1CN([C@@H](C)CO)C(=O)Cc2cc(NS(=O)(=O)c3ccccc3)ccc2O[C@H]1CN(C)Cc1ccncc1	-1.8
44	Cc1ccc(CNC(=O)COC(=O)c2ccc(S(=O)(=O)NCc3ccco3)cc2)cc1	0.6
45	C[C@@H]1CCCCCCCCC(=O)OCCN(C(=O)OC(C)(C)C)[C@H](C)CCCCCCCCC(=O)OCCN1C(=O)OC(C)(C)C	-6.5
46	COc1cc(NC(=O)COC(=O)c2ccc([N+](=O)[O-])s2)cc(OC)c1OC	19.8
47	CN(C)C1(CNC(=O)c2ccc(NS(=O)(=O)c3ccc(Cl)c(Cl)c3)cc2)CCCCC1	-3.9
48	O=C(N=Nc1c(O)[nH]c2ccc(F)cc12)c1ccc(NS(=O)(=O)c2cccs2)cc1	1.0
49	O=C1CC2CCCN2C=C1I (stereo not drawn)	-5.8
50	CC(Sc1nnc(N)s1)C(=O)NCc1ccc2c(c1)OCO2 (stereo not drawn)	2.3

New compounds follow
cpd	SMILES	Mtb bLac sens
51	Cc1nc(CC(=O)NNS(=O)(=O)c2cccc(Cl)c2Cl)cs1	3.0
52	COc1ccc(NC(=O)C2C3C=CC4(O3)C2C(=O)N(CCCN2CCCC(C)C2)C4C(=O)NC2CCCCC2)cc1 (stereo not drawn)	-9.1
53	COc1ccc(NC(=O)Nc2ccc3c(c2)C(=O)N([C@@H](C)CO)C[C@@H](C)[C@@H](CN(C)S(=O)(=O)c2cn(C)cn2)O3)cc1	-1.9
54	COc1cc(C(=O)NCC(c2ccccc2)N(C)C)ccc1OCc1c(C)noc1C (stereo not drawn)	-5.5
55	Cc1ccccc1C(=O)NCC(=O)N1CCN(c2ccccn2)CC1	-3.7
56	COc1ccc(NS(=O)(=O)c2cccc(C(=O)NNC(=O)c3ccc(=O)[nH]c3)c2)cc1	-3.0
57	Cc1ccc(C(=O)OCC(=O)c2ccc(CC(=O)N3CCOCC3)s2)cc1C	-5.8
58	O=C(COC(=O)c1cc(S(=O)(=O)N2CCOCC2)ccc1Cl)NCc1ccccc1	-9.0
59	NCCCCCC(=O)O	-4.0
60	COC(=O)c1ccc(COC(=O)C2CC(O)CN2S(=O)(=O)c2ccc([N+](=O)[O-])cc2)cc1 (stereo not drawn)	-6.2
61	O=C1OC(N2C(=O)CC[C@H]2C(=O)NCC2CCCO2)c2ccccc21 (stereo partly drawn)	-7.0
62	COc1ccccc1CNC(=O)[C@@H]1CCCN1S(=O)(=O)c1ccc(Cl)cc1	-1.6
63	CS(=O)(=O)N1CCN(C(=O)Cc2ccc(Br)cc2)CC1	0.1
64	CC1CCCCC12NC(=O)N(CC(=O)OCc1cccc(F)c1)C2=O (stereo not drawn)	-2.9
65	C[C@@H]1CN([C@H](C)CO)C(=O)Cc2cc(NC(=O)Cn3cnnn3)ccc2O[C@@H]1CN(C)Cc1ccc(Cl)c(Cl)c1	5.3
66	Cc1cccc(NC(=O)CN(C)C(=O)C2CCCC2)c1C	-6.3
67	CC(CCc1ccccc1)NS(=O)(=O)c1ccc(Cl)c(C(=O)O)c1 (stereo not drawn)	1.9
68	C[C@H](NC(=O)c1ccccc1)C(=O)OCC(=O)Nc1ccc2c(c1)OCO2	-4.7
69	CCOC(=O)C1CCN(S(=O)(=O)c2ccc(Cl)s2)CC1	0.2
70	COC(=O)C1=C(c2ccc(F)cc2F)C[C@@H]2CC[C@H]1N2C(=O)NCc1ccco1	-7.9
71	Cc1ccc(S(=O)(=O)N2CCCCC2)cc1NC(=O)c1ccc(Cl)nc1	-3.9
72	O=C(O)CC1(CC(=O)N2CCOCC2)CCCC1	-2.1
73	O=C(COc1ccc(Br)cc1Cl)NC(=O)NC1CCCC1	-3.3
74	COc1cccc(NC(=O)COC(=O)c2ccccc2C(=O)N(C)c2ccccc2)c1	-6.3
75	Cc1ccccc1OC1CCN(C(=O)c2cc(COc3ccccc3)on2)CC1	22.7
76	Cc1ccc(NC(=O)C(c2ccccc2)N2CCN(CC(=O)NC3CC3)CC2)cc1Cl (stereo not drawn)	-2.4
77	C[C@@H](O)CC#Cc1ccc2oc(=O)c(-n3cc(-c4ccsc4)nn3)cc2c1	22.1
78	COc1ccc(S(=O)(=O)N2CCOCC2)cc1NS(=O)(=O)c1ccc(F)c(F)c1	2.0
79	C[C@H]1CN([C@@H](C)CO)C(=O)c2cccc(NC(=O)Nc3ccc(C(F)(F)F)cc3)c2O[C@@H]1CN(C)S(=O)(=O)c1ccc(Cl)cc1	86.2
80	COC(=O)C1=C(c2cccc(OCc3ccccc3)c2)C[C@@H]2CC[C@H]1N2C(=O)NCCOc1ccccc1Cl	-5.4
81	CC(=O)Nc1ccc(SCCN2CC[C@@H](C)CCC2=O)cc1	-0.2
82	CCc1cc(C(=O)N/N=C/c2ccc(O)cc2O)c2ccccc2n1	0.9
83	CCCN(CC(=O)NC(=O)NC1CCCCC1)CC(=O)Nc1cc(Cl)ccc1Cl	-3.5
84	Cc1ccc(C(=O)NCC(=O)NC2CCC(C)CC2)s1 (stereo not drawn)	-6.6
85	COc1ccc(CNC(=O)COC(=O)c2ccc(C(=O)c3ccccc3)cc2)cc1	63.8
86	CCOC(=O)c1c(C)[nH]c(C)c1C(=O)COC(=O)[C@@H](NC(=O)c1ccco1)C(C)C	-1.0
87	O=[N+]([O-])c1cc([N+](=O)[O-])c(Oc2cc(Cl)cc(Cl)c2)cc1NN1CCCCC1	-8.6
88	COc1cccc(OC)c1C(=O)OCc1c(-c2ccccc2)ncc2ccccc12	-4.1
89	COCCCNC(=O)Cn1ccc(NC(=O)OCc2ccccc2)nc1=O	22.8
90	COc1ccccc1C(=O)NCCC(=O)OCC(=O)Nc1ccc(S(N)(=O)=O)cc1	-6.3
91	Cc1ccc(C=NNC(=O)c2cc(-c3cccnc3)nc3ccccc23)o1	-0.1
92	CCC[C@@H](CN1CCC[C@H]1CN1C(N)=NC[C@@H]1Cc1ccccc1)N1C[C@@H](Cc2ccccc2)N(CCc2ccc(Cl)c(Cl)c2)C1=N	100.0
93	COC(=O)C1=C(c2ccc(F)cc2OCc2ccccc2)C[C@@H]2CC[C@H]1N2C(=O)NCCCOC(C)C	-0.5
94	COc1ccc(CC(=O)OCC(=O)N2CCc3ccccc32)cc1OC	3.9
95	CCOC(=O)c1ccc(NC(=O)CCCN2C(=O)NC3(CCCC3)C2=O)cc1	-0.6
96	CCn1c(C)cc(C(=O)CSc2nnnn2C2CCCC2)c1C	4.7
97	Cc1ccc(NC(=O)c2nc[nH]c2C(=O)N[C@H](C)c2ccccc2)cc1	?
98	Cc1ccc(S(=O)(=O)N2CCOCC2)cc1NC(=O)COC(=O)/C=C/c1ccco1	4.7
99	CCOc1ccc(NC(=O)CN(C)C(=O)CC2CCCC2)cc1OCC	-1.2
100	CC(NC(=O)c1ccco1)c1nc(-c2ccc(Cl)cc2)no1 (stereo not drawn)	-0.3

Six structures out of the list, ordered by molar mass, smallest number first.
cpd	SMILES	Mtb bLac sens
96	CCn1c(C)cc(C(=O)CSc2nnnn2C2CCCC2)c1C	4.7
94	COc1ccc(CC(=O)OCC(=O)N2CCc3ccccc32)cc1OC	3.9
87	O=[N+]([O-])c1cc([N+](=O)[O-])c(Oc2cc(Cl)cc(Cl)c2)cc1NN1CCCCC1	-8.6
98	Cc1ccc(S(=O)(=O)N2CCOCC2)cc1NC(=O)COC(=O)/C=C/c1ccco1	4.7
90	COc1ccccc1C(=O)NCCC(=O)OCC(=O)Nc1ccc(S(N)(=O)=O)cc1	-6.3
80	COC(=O)C1=C(c2cccc(OCc3ccccc3)c2)C[C@@H]2CC[C@H]1N2C(=O)NCCOc1ccccc1Cl	-5.4

Further compounds follow.
cpd	SMILES	Mtb bLac sens
101	O=C1C=C(c2ccc3ncccc3c2)C[C@@H](c2ccc(Cl)cc2)C1	96.5
102	Cc1cccc(C(=O)Nc2ccc(C(=O)N/N=C/c3ccc(C)o3)cc2)c1	-5.1
103	COc1ccc(S(=O)(=O)N2CCOCC2)cc1NC(=O)CN1C(=O)CN(C)C1=O	-12.1
104	N#Cc1ccccc1Sc1ccccc1C(=O)NCC(c1ccco1)N1CCCCC1 (stereo not drawn)	-10.9
105	COc1ccc(NC(=O)CN(C)C(=O)c2cccc(S(=O)(=O)Nc3ccc(F)cc3)c2)cc1	-1.2
106	COc1ccc(CCN2CC(C(=O)OC(C)C(=O)Nc3cccc(Cl)c3)CC2=O)cc1OC (stereo not drawn)	-14.6
107	Cc1ccc(C(=O)NCC(=O)OCCCOC(=O)CNC(=O)c2ccc(C)c(C)c2)cc1C	-0.9
108	COC(=O)c1ccccc1NC(=O)Cn1cnc([N+](=O)[O-])c1	-5.1
109	O=C(Nc1ccc2c(c1)OCO2)C1CC1(Cl)Cl (stereo not drawn)	-9.1
110	O=C(Cc1ccc(Cl)cc1)OCC(=O)N1CCCCCC1	4.8
111	Cc1cc(OCC(=O)OC(C)C(=O)Nc2ccc(N3CCOCC3)cc2)ccc1Cl (stereo not drawn)	-4.6
112	CCN(CC)CCNC(=O)c1cc(Br)c(N)cc1OC	-3.9
113	COc1ccc(NC(=O)CCCc2nc3ccccc3c(=O)[nH]2)cc1Cl	-13.0
114	COc1ccc(C(=O)OCC(=O)Nc2sccc2C(N)=O)cc1[N+](=O)[O-]	-1.4
